GIRK2 activ = opens human GIRK2 potassium channels; P48051; HEK293-GIRK2 thallium flux, Thallos fluorescence; calls only for hits at 25 µM; actives 0.05% (n = 63,000); AID 1259325;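 active = among the strongest 0.2% of first-round signals and kept after retests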;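 note: first round at about 10 µM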
Target sequence (P48051 whole entry, looked up): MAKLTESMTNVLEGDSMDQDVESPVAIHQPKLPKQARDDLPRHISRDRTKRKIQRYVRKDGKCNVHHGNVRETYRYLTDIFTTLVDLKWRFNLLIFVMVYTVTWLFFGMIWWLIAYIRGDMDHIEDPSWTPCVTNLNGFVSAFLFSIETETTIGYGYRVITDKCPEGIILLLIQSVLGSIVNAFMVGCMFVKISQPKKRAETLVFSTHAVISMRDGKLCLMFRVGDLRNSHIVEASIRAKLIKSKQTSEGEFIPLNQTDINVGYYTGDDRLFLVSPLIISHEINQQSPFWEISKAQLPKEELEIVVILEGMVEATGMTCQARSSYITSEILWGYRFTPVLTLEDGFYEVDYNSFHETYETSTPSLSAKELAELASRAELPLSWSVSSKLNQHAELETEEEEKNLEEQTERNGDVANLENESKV
Calls only; i = inactive.

SMILES	GIRK2 activ
CSc1ccccc1C(=O)N1CCC(CSc2nc(C)cs2)CC1	i
Cc1nc(C)c(-c2nnc(NC(=O)Nc3ccccc3C(F)(F)F)o2)s1	i
Cc1cc(OCC(=O)NCc2ccccc2Br)nc(N2CCN(c3ccccc3)CC2)n1	i
CCCCn1c(=O)c2c(nc3n2CC(C)CN3c2cc(OC)ccc2OC)n(C)c1=O (stereo not given)	i
CCc1nnc(C2CCN(C(=O)Nc3ccccc3OC)CC2)s1	i
CC1Oc2ccccc2N(Cc2nc(-c3ccc(Br)cc3)no2)C1=O (stereo not given)	i
Cn1c(C2CCN(S(C)(=O)=O)CC2)nn(CC(=O)NCc2ccccc2Cl)c1=O	i
NS(=O)(=O)c1ccc(CNC(=O)c2coc(NC(=O)c3ccsc3)n2)cc1	i
CCc1ccc2ncc(C#N)c(N3CCC(C(=O)NCc4cccc(Cl)c4)CC3)c2c1	i
CC1CN(CC(=O)Nc2ncc(Cc3ccc(Br)cc3)s2)CC(C)O1 (stereo not given)	i
Cc1cccc(C)c1NC(=O)Cn1c(=O)n(Cc2ccc(F)cc2)c(=O)c2nccnc21	i
Cc1cccc(Nc2c(C(=O)N3CCOCC3)cnc3nc(C)ccc23)c1	i
COc1cc(OC)c(OC)cc1/C=C1\Oc2cc(OC(=O)C(C)(C)C)ccc2C1=O	i
COc1ccc(OC)c(NC(=O)Cn2nc3c4cc(-c5ccc(Cl)cc5)nn4ccn3c2=O)c1	i
O=C(NCCCc1ccccc1)N1CCC(Oc2cccnc2)CC1	i
O=C(c1cc(-c2ccc(F)cc2)c[nH]1)N1CCN(CCc2ccccc2)CC1	i
Cn1c(C(F)(F)F)nn(CCNC(=O)c2cnc3ccccc3n2)c1=O	i
Cc1cc(C)n(CCNC(=O)C(C)n2nc(-c3ccc(F)cc3)ccc2=O)n1 (stereo not given)	i
Cc1nc(C)c(-c2ccc(=O)n(CCNC(=O)c3cc(=O)c4ccccc4o3)n2)s1	i
COc1cc(=O)oc(/C(C)=C/C(C)(O)C(O)/C(C)=C/C2(C)OC(C)C3(C)OC23)c1C (stereo not given)	i
COc1ccc(-c2csc(-c3nnn(-c4cccc(OC)c4)c3C)n2)cc1	i
CCOC(=O)C1CCN(C(=O)C2CCCN(c3ccc(-c4ccc(C)c(C)c4)nn3)C2)CC1 (stereo not given)	i
CCCCOC(=O)N1c2ccccc2NC(=O)CC1C (stereo not given)	i
COc1cccc(C(=O)N(CCCn2ccnc2)c2nc3ccc(C)cc3s2)c1OC	i
NC(=O)c1nnn(-c2ccc(NC(=O)CCc3ccccc3)cc2)n1	i
CN(C)CCCN1C(=O)C(=O)C(=C(O)c2ccncc2)C1c1ccc([N+](=O)[O-])cc1 (stereo not given)	i
CN1C(=O)N(CC(=O)NCc2ccc3c(c2)OCO3)C(=O)C12CCCCC2	i
Cn1c(NCc2ccco2)nc2c1c(=O)n(Cc1ccc(Cl)cc1)c(=O)n2C	i
CC(C)c1ccc(S(=O)(=O)NCC2CCN(C3CCCC3)CC2)cc1	i
O=C(c1cc(-c2ccco2)[nH]n1)N1CCC2(CCc3ccccc3O2)CC1	i
CCOC(=O)c1cn[nH]c1S(=O)(=O)Nc1ccc(OCc2ccccc2)cc1	i
COc1ccc(CNC(=O)NCc2cc(C)oc2C)cc1	i
COc1ccc(-c2csc3c(=O)n(Cc4cccc(C(F)(F)F)c4)cnc23)cc1	i
Cc1cc(CNC(=O)C2(c3ccc(F)cc3)CC2)c(C)o1	i
O=C(CCCSc1ccccc1)Nc1nnc(-c2cccs2)o1	i
Cc1cc(C)cc(NC(=O)Cn2cnc3c(c2=O)CN(Cc2ccccc2)CC3)c1	i
COc1cc(N=c2oc3c(O)cc(C(C)(C)C)cc3cc2C(N)=O)cc(OC)c1	i
O=C1CCC(C(=O)N2CCN(S(=O)(=O)C3CC3)CC2)N1 (stereo not given)	i
O=C(CCCS(=O)(=O)Cc1ccccc1)Nc1nnc(-c2ccc(F)cc2)o1	i
COc1ccccc1NC(=O)CN1CCC(c2nnc(C(F)(F)F)o2)CC1	i
O=C(NCCC(O)c1ccc2c(c1)OCO2)c1ccc(-c2ccccc2)cc1 (stereo not given)	i
O=C(CN1CCCC(COCc2ccccc2)C1)Nc1nccs1 (stereo not given)	i
O=C(Oc1ccccc1)N1CCC(CNC(=O)C2(c3ccccc3)CCOCC2)CC1	i
CCOc1ccc(-c2nc(CSc3nc4ccccc4c(=O)n3Cc3ccco3)c(C)o2)cc1	i
CC1CCN(C(=O)CN2CCN(Cc3nc4ccccc4n3C)CC2)CC1	i
COC(=O)c1ccc2c(=O)n(-c3ccccc3)c(N3CCCCCC3)nc2c1	i
COc1ccc(CCNC(=O)Cc2cc(=O)[nH]c(SCc3cccc(Cl)c3)n2)cc1	i
CO[C@H]1/C=C/O[C@@]2(C)Oc3c(C)c(O)c4c(O)c(c5c(nc6cc(C)ccn65)c4c3C2=O)NC(=O)/C(C)=C\C=C\[C@H](C)[C@H](O)[C@@H](C)[C@@H](O)[C@@H](C)[C@H](OC(C)=O)[C@@H]1C	i
COC(CC(OC1OC(CO)C(O)C(O)C1O)c1c(O)ccc(C(C)=O)c1O)C(=O)O (stereo not given)	i
O=S(=O)(/C=C/c1ccccc1)NCCc1nc2c(c(C(F)(F)F)n1)CCCC2	i
CSc1cccc(C(=O)N(CCn2cccn2)c2nc3c(Cl)cccc3s2)c1	i
O=C(Cn1nc(-c2ccccc2)c2sc(N3CCOCC3)nc2c1=O)c1ccc2c(c1)OCCO2	i
Cc1nnsc1C(=O)N1CCC(Oc2ncccc2Cl)CC1	i
Cc1ccc(NC(=O)CSc2nnc(-c3ccncc3)o2)c(C)c1	i
CC(Oc1ccccc1Cl)C(=O)Nc1cc(N2CCCC2)ncn1 (stereo not given)	i
Cc1ccc(C)c(S(=O)(=O)N2CC(c3nc(Cc4cccs4)no3)C2)c1	i
O=C1C2N=NN(Cc3nc(-c4ccccc4Br)no3)C2C(=O)N1c1ccc(F)cc1 (stereo not given)	i
COc1ccc(CCC(=O)Nc2ccc(Cn3cnc(C(=O)Nc4cccc(Cl)c4)c3)cc2)cc1	i
Cn1cnnc1SCCNC(=O)c1csc(-n2cccc2)n1	i
CCOc1ccc(NC(=O)NCC(c2cn(C)c3ccccc23)N(C)C)cc1 (stereo not given)	i

Among those listed so far, two have a tert-butyl group.
SMILES	GIRK2 activ
COc1cc(OC)c(OC)cc1/C=C1\Oc2cc(OC(=O)C(C)(C)C)ccc2C1=O	i
COc1cc(N=c2oc3c(O)cc(C(C)(C)C)cc3cc2C(N)=O)cc(OC)c1	i

(list continues)
SMILES	GIRK2 activ
COc1ccc(C(=O)NC2CCN(Cc3noc(-c4ccccc4)n3)C2)c(C)c1 (stereo not given)	i
Cc1csc(CN2CCN(C(=O)c3ccc(C(C)(C)C)cc3)CC2)n1	i
CC(C)(C)C(=O)NCC(O)C1CCCCC1 (stereo not given)	i
O=C(NCCCN1CCN(c2ccccc2)CC1)NC1CCCCC1	i
Cn1nc(C2CCN(C(=O)c3ccc(F)cc3F)CC2)n(-c2ccccc2)c1=O	i
Cc1c(C(=O)Nc2ccc(S(N)(=O)=O)cc2)nnn1-c1ccccc1Cl	i
COc1cccc(C(=O)N2CCN(c3oc(-c4ccccc4Cl)nc3C#N)CC2)c1	i
COCCCNC(=O)/C(C#N)=C1\N=C(NC(=O)c2ccc(C(C)(C)C)cc2)c2ccccc21	i
Cc1c(Cl)cccc1-n1c(C)c(C)n2c3c(=O)n(CC(N)=O)c(=O)n(C)c3nc12	i
Cc1cc(NC(=O)C(=O)NCC2(O)CCc3ccccc32)no1 (stereo not given)	i
O=C(COc1ncccn1)Nc1cnc(N2CCCC2)nc1	i
Cc1cc(C(=O)NCC2CCN(S(=O)(=O)c3cccnc3)CC2)c(C)o1	i
O=C(c1ccsc1)N1CC(c2nc(-c3ccc[nH]c3=O)no2)C1	i
COc1cccc(CNC(=O)CSc2ncc(S(=O)(=O)c3ccccc3)c(N)n2)c1	i
CCOC(=O)C1CCN(c2nc3ccccc3n3c(=O)n(CC(=O)Nc4cccc(C)c4)nc23)CC1	i
COCCNC(=O)C(C)n1nc(-c2ccc(OC)cc2)ccc1=O (stereo not given)	i
O=C(c1ccc2ncsc2c1)N1CCC(Oc2ncccc2Cl)CC1	i
CCNC(=O)c1nc(C(=O)N2CCN(c3ccccc3F)CC2)cs1	i
O=C1Cc2c([nH]c3ccc(Br)cc23)-c2ccccc2N1	i
O=[N+]([O-])c1ccc(-c2ccc(-c3nnc(-c4ccco4)o3)o2)c(Cl)c1	i
COCC(=O)N1CCCc2ccc(NS(=O)(=O)c3ccc(N4CCCCS4(=O)=O)cc3)cc21	i
Cn1c(N2CCN(Cc3ccccc3)CC2)nc2c1c(=O)n(Cc1ccccc1Cl)c(=O)n2C	i
CC1CC(C)CN(S(=O)(=O)c2ccc(C(=O)N(C)c3ccccc3)cc2)C1 (stereo not given)	i
C=C(C)Cn1c(=O)c2c(nc3n2C(C)C(C)=NN3CCCO)n(C)c1=O (stereo not given)	i
COc1ccc(OC)c(-c2cc3ccc(OCC#N)cc3oc2=O)c1	i
COCC(=O)N1CCN(c2ccc(-c3noc(C(F)(F)F)n3)cn2)CC1	i
COc1ccc(-c2noc(-c3ccc(SCC(=O)Nc4cccc(C)c4C)nc3)n2)cc1	i
CCCc1nnsc1C(=O)Nc1nnc(-c2cc3cccc(OC)c3o2)o1	i
Cc1ccccc1NC(=O)CSc1nccn1-c1cccc(C(=O)Nc2ccccc2)c1	i
COc1ccc(C)cc1N1CCCn2c1nc1c2c(=O)n(Cc2cccc(C)c2)c(=O)n1C	i
CC(Oc1ccccc1F)C(=O)Nc1cc(-n2cccn2)ncn1 (stereo not given)	i
O=S(=O)(c1ccccc1F)N1CCC(Oc2nc3c(Cl)cccc3s2)CC1	i
CCc1ccc(-c2noc(-c3sccc3S(=O)(=O)N(C)c3ccc(OC)c(OC)c3)n2)cc1	i
CCc1cccc(NC(=O)Cn2nc3nc(N4CCCCCC4)ccn3c2=O)c1	i
Cn1nc(C2CCN(CC(=O)Nc3ccc(F)c(Cl)c3)CC2)n(-c2ccccc2)c1=O	i
O=C1CC(c2nc(C3CC3)no2)CN1c1ccc2c(c1)CCC2 (stereo not given)	i
COc1cc2c(cc1OC)CN(C(=O)c1nnn(-c3ccc(Br)cc3)n1)CC2	i
COc1cc(NC(=O)Cn2nc(N3CCCCCC3)c3ccccc3c2=O)cc(OC)c1	i
Cc1nnc(CNC(=O)c2cnn(-c3ccccc3)n2)o1	i
CC(O)CN1CCN(CC(=O)N2CCCCCC2)CC1 (stereo not given)	i
Cc1csc(C(=O)NCCc2nc3c(c(C(F)(F)F)n2)CCCC3)c1	i
COc1cccc(-n2nnc(C(=O)Nc3ccc(NC(C)=O)cc3)c2C)c1	i
Cc1ccc(S(=O)(=O)N2CCCCC2CCNC(=O)Nc2cccs2)cc1 (stereo not given)	i
O=C(Nc1nnc(-c2cccs2)o1)c1ccc(C(=O)c2ccccc2)cc1	i
Cc1ccc(NC(=O)Cn2ccn3nc(-c4ccccc4)cc3c2=O)cc1Cl	i
COCCn1c(=O)c2c(nc3n2CC(C)CN3c2ccccc2)n(C)c1=O (stereo not given)	i
CCCN1C(=O)COc2ccc(-c3csc(NC(=O)c4cccc(F)c4)n3)cc21	i
Cn1c(NCc2ccccc2)nc2c1c(=O)n(Cc1ccc(Cl)cc1)c(=O)n2C	i
O=c1[nH]nc(-c2ccccc2)c2ccccc12	i
NC(=O)Cc1nc(-c2ccccn2)n[nH]1	i
O=C(Nc1cccc([N+](=O)[O-])c1)C1CCN(c2ccc(-n3cccn3)nn2)CC1	i
COc1ccccc1-c1ccc(N2CCC(NC(=O)c3cnccn3)CC2)nn1	i
CC(=O)Nc1ccc(S(=O)(=O)NCCc2ccoc2)cc1	i
COc1ccc(OC)c(S(=O)(=O)Nc2ccc3c(c2)CCCN3S(=O)(=O)c2cccs2)c1	i
O=C(Cn1cnc2ccccc21)N1CC(c2nc(-c3ccncc3)no2)C1	i
Cn1c(=O)c2c(nc3n2CCN3c2ccc(OCc3ccccc3F)cc2)n(C)c1=O	i
O=C(CCn1cnc2c([nH]c3ccccc32)c1=O)NCc1ccc(C(F)(F)F)cc1	i
Cc1cc(C)n(-c2cc(N3CCN(C(=O)Cc4noc5ccccc45)CC3)nc(C)n2)n1	i
CCn1c(-c2nonc2N)nc2ccncc21	i
Cc1ccc(-n2c(=S)sc3c(=O)n(C)c(SCC(=O)Nc4ccc(C)c(F)c4)nc32)cc1	i
COc1ccc(-c2c[nH]c(=S)n2-c2ccc(C)cc2)cc1	i
Cc1ccc2oc3c(c(=O)c2c1)C(c1ccc(C(C)(C)C)cc1)N(c1nccs1)C3=O (stereo not given)	i

An excerpt from above in order of length of the SMILES, lowest first:
SMILES	GIRK2 activ
COc1ccc(OC)c(-c2cc3ccc(OCC#N)cc3oc2=O)c1	i
CC1CN(CC(=O)Nc2ncc(Cc3ccc(Br)cc3)s2)CC(C)O1 (stereo not given)	i
Cc1ccc(S(=O)(=O)N2CCCCC2CCNC(=O)Nc2cccs2)cc1 (stereo not given)	i

Some of the entries so far, in CSV form:
canonical_smiles,GIRK2 activ
CCn1c(-c2nonc2N)nc2ccncc21,i
Cc1ccc(-n2c(=S)sc3c(=O)n(C)c(SCC(=O)Nc4ccc(C)c(F)c4)nc32)cc1,i
COc1ccc(-c2c[nH]c(=S)n2-c2ccc(C)cc2)cc1,i
Cc1ccc2oc3c(c(=O)c2c1)C(c1ccc(C(C)(C)C)cc1)N(c1nccs1)C3=O (stereo not given),i

High-throughput results (PubChem)

Only part of the results is shown; count on the stated rates, not on these rows.
